# Rce1 inh – yeast Ras-converting enzyme inhibition | Q03530 | yeast membranes, quenched prenylated peptide cleavage fluorescence | calls only | actives 0.27% (n = 290,000) | AID 2563;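 active means fall in fluorescence gain of 50% or more versus controls, with final raw signal at or below 3038400; inconclusive means same 50% fall but final raw signal above 3038400; inactive means fall in fluorescence gain under 50%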;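 further: plate controls were neutral control wells for no effect and wells lacking membranes for full effect; tested at 10 µM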
# MT1-MMP act inh – blocks activation of human MT1-MMP. P50281. HT1080 RFP-PRO-GFP cells, GFP/RFP ratio fluorescence, overnight; percent of plate control window, DMSO zero. GFP/RFP ratio change, % at 20 µM. actives 0.061% (n = 360,000);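 active means GFP/RFP ratio change of at least 30% with cell ATP level not reduced by more than half and red fluorescence within 50% of control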; further: strong numbers were not always called active
#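 Read-out: GFP/RFP fluorescence ratio; Test system: RFP-PRO-GFP reporter HT1080 cells; Compound dosing: single-point 20 µM compound, 1% DMSO; Times: overnight compound exposure at 37 °C.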
# PABP FP inh – PABP-poly(A) binding inhibition; inhibition, % at 35 µM; PABP-poly(A) RNA binding, fluorescence polarization; P11940; actives 1% (n = 290,000);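 active means 50% or more with normal probe brightness, or confirmed in later tests; inconclusive means above 50% with abnormal brightness, or retests that disagree; inactive means below 50% or failed in later tests; about a fifth of its hits are not listed in these tables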;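 further: calls also rest on retests at 20 µM and on dose response follow-up; controls were probe without protein and protein plus probe with vehicle; some compounds called inactive have numbers as strong as hits; many hits fall short of the cut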
# Target sequence (P11940 whole entry, looked up): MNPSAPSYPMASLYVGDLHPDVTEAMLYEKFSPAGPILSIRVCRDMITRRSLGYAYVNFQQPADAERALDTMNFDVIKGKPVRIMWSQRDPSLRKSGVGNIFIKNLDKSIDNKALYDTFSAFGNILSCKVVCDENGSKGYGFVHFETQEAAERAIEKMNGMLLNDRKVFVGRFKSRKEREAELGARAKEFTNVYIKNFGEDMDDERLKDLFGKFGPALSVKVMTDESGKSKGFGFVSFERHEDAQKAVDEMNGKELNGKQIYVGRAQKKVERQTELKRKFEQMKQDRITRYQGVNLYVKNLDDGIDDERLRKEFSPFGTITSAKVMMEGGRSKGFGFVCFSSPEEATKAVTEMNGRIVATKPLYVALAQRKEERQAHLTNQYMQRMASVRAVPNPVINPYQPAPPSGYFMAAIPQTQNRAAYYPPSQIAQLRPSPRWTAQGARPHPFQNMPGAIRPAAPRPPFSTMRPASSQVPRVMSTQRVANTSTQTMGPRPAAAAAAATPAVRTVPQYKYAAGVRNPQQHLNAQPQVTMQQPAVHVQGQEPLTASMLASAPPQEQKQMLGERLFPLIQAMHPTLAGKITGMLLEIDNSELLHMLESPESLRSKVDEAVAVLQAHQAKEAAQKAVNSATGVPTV
# HIV Env fusion – inhibitors of HIV Env-mediated cell fusion | actives 1.1% (n = 360,000) | inhibition, % at 12.3 µM | HeLa-JRFL Env/CEM21 cell fusion, luciferase;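 active means mean replicate inhibition score of at least 50 and every replicate individually at or above 50; inconclusive means only one of the two criteria met; inactive means mean below 50 and not all replicates reaching 50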;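 further: 0% = plate neutral controls and 100% = maraviroc near 300 nM; one replicate is shown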
# eIF4H inh – inhibitors of RNA binding by human eIF4H. AID 2012. actives 0.94% (n = 290,000). eIF4H fluorescence polarization binding assay. inhibition, % at 35 µM;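 active means 50% or more with normal probe brightness, or confirmed in later tests; inconclusive means above 50% with abnormal brightness, or retests that disagree; inactive means below 50% or failed in later tests; about a fifth of its hits are not listed in these tables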;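 further: calls also rest on retests at 20 µM and on dose response follow-up; 0% = protein and probe with vehicle and 100% = probe without protein; strong numbers were not always called active; many hits fall short of the cut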
# CSC inhib – cancer stem cell inhibition; cancer stem cell-like cells viability, luminescence; actives 1.1% (n = 300,000); inhibition, % at 7.5 µM;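 active means mean at 75% or more and at least half the replicates too; inconclusive means mean and replicates disagree; tested in HMLE shEcad cells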;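 further: 0% = median of negative and 100% = median of positive control wells; the first replicate is given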
# Yeast UUG start – modulators of start codon recognition fidelity in yeast | S. cerevisiae UUG-firefly luciferase reporter, luminescence/redox ratio | actives 0.13% (n = 350,000) | activity score, % at 18.7 µM;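 active means replicate mean at a twofold rise or more, about +100% in these data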;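 further: firefly luciferase made from a UUG start codon reports start codon fidelity; reporter light over untreated wells divided by growth signal over untreated wells; some hits fall short of that in this replicate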
# eIF4H inh retest – also measured in eIF4H inh; calls as there; inhibition, %; compound at 20 µM; confirmation average;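 mean of two retest wells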
# PABP FP inh retest – also measured in PABP FP inh; calls as there; inhibition, %; compound at 20 µM; confirmation repeats;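 mean of two retest wells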
# MT1-MMP act inh RFP – recorded beside MT1-MMP act inh, whose call it bears; RFP signal change, %; measured here: RFP expression control read;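 0 = vehicle wells; hits needed this value within 50% of zero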
# * marks the source's active call; other numbers are inactive results; i = inactive; ? = inconclusive; nt = no result given. These rows are one share of the data; the hit share may differ from the screen's.
# Start of the listing, in advance:
SMILES,Rce1 inh,MT1-MMP act inh,MT1-MMP act inh RFP,PABP FP inh,HIV Env fusion,eIF4H inh,CSC inhib,Yeast UUG start,others
COc1ccc(NC(=O)CN(C)S(=O)(=O)c2ccc(Cl)cc2)cn1,nt,4,2,nt,-6,nt,nt,-13,
CC1(C)CC(=O)C(C(C#Cc2ccccc2)C2=C(O)CC(C)(C)CC2=O)=C(O)C1,i,3,1,3,-12,-1,nt,nt,
Cn1cc(C(=O)c2ccc(Cl)cc2Cl)cc1C=O,i,-5,-9,-16,2,-19,-12,nt,
CCN1CCN(Cc2ccc(NC(=O)c3ccc(C)c(NC(=O)c4csc(-c5ccncc5)n4)c3)cc2C(F)(F)F)CC1,i,7,4,3,35,4,-16,-10,

# The list itself, previewed entries included:
SMILES,Rce1 inh,MT1-MMP act inh,MT1-MMP act inh RFP,PABP FP inh,HIV Env fusion,eIF4H inh,CSC inhib,Yeast UUG start,others
COc1ccc(NC(=O)CN(C)S(=O)(=O)c2ccc(Cl)cc2)cn1,nt,4,2,nt,-6,nt,nt,-13,
CC1(C)CC(=O)C(C(C#Cc2ccccc2)C2=C(O)CC(C)(C)CC2=O)=C(O)C1,i,3,1,3,-12,-1,nt,nt,
Cn1cc(C(=O)c2ccc(Cl)cc2Cl)cc1C=O,i,-5,-9,-16,2,-19,-12,nt,
CCN1CCN(Cc2ccc(NC(=O)c3ccc(C)c(NC(=O)c4csc(-c5ccncc5)n4)c3)cc2C(F)(F)F)CC1,i,7,4,3,35,4,-16,-10,
O=C(CN(C(=O)c1csnn1)c1ccc(F)cc1)NCc1ccc(F)cc1,i,-2,1,-8,-17,2,6,nt,
COc1cccc(COC(=O)c2c(C)nn(-c3ccccc3)c2Cl)c1OC,i,3,-2,6,4,-5,-11,-17,
Cc1cc(C(=O)COC(=O)c2ccc3c(c2)OCO3)c(C)n1Cc1cccs1,i,11,3,-1,-4,-2,-1,-19,
Cc1cc(C)nc(SCc2ccc(F)cc2)n1,i,-1,-6,4,8,0,-16,nt,
Cc1ccc(C)c(Cn2nnc3c(=O)[nH]c(C4CCN(C(=O)c5cccs5)CC4)nc32)c1,i,-10,-7,13,-196,5,-9,14,
CCSc1nsc(NC(=O)Nc2ccccc2Cl)n1,nt,-2,-20,nt,-38,nt,nt,-27,
CC(C)OCCCNC(=S)Nc1ccc(S(N)(=O)=O)cc1,i,3,7,4,-7,-10,11,nt,
CCCCc1nc2cc(C(=O)N3CCC(O)CC3)ccc2o1,i,-3,0,4,-6,-3,nt,-21,
COc1ccc(C2C(C(C)=O)=C(C)Nc3ncnn32)c(OC)c1OC (stereo not given),i,0,2,-1,1,-6,4,-22,
CCOc1ccc(N(CC)C(=O)COc2cc(=O)n(CC)c3ccccc23)cc1,i,4,2,-6,-83,4,-22,3,
CCOc1ccccc1C(=O)n1nc(C)cc1C,i,-1,3,-10,nt,0,7,-20,
CC1=NN(C(=O)CCCc2ccccc2)C(O)(C(F)(F)F)C1 (stereo not given),i,3,1,2,0,5,0,-14,
CC(CCc1ccccc1)NC(=O)c1ccncc1 (stereo not given),i,-5,-2,0,-91,2,-19,-19,
CN(CCC1CCCCO1)C(=O)CCc1nnc(C2CCCCC2)o1 (stereo not given),i,-1,3,8,-4,-3,0,nt,
NC(=O)c1cccc(CC(=O)c2ccccc2)c1,i,-2,1,-2,14,-6,-12,-13,
COCCNc1ncnc2c1ncn2[C@H]1CN(Cc2ccncc2)C[C@@H](CO)O1,nt,-9,0,nt,19,nt,nt,-6,
O=C(CN1CCC(c2nc3ccccc3s2)CC1)NCc1cccs1,i,5,-17,7,46,-5,-4,-1,
Cc1[nH]c2ccccc2c1C(=O)CSc1ccccc1,i,-3,-4,-10,-2,1,4,-3,
O=C(Nc1c(C(=O)N2CCOCC2)oc2ccccc12)c1cccc([N+](=O)[O-])c1,i,1,1,7,2,4,-11,-19,
CN(C(=O)CN1C(=O)S/C(=C\c2ccccc2F)C1=O)C1CCS(=O)(=O)C1 (stereo not given),i,-3,-3,11,-7,-11,-9,2,
COc1ccc(C(N)c2csc(Nc3ccc(C(=O)NCCCO)cn3)n2)cc1 (stereo not given),nt,-1,6,nt,-2,nt,nt,-4,
O=C(Nc1nn[nH]n1)c1ccc(S(=O)(=O)N2CCCCC2)cc1,i,2,-1,-2,-4,-15,0,nt,
Cc1cccn2c(=O)c3cc(C(=O)NCc4ccco4)c(=N)n(C(C)C)c3nc12,i,2,2,76,-46,105,0,-7,eIF4H inh retest=-13;PABP FP inh retest=-7
CCc1ccccc1NC(=O)N1CCCc2ccccc21,i,-3,5,-2,-16,-2,-7,-21,
CCN(CC)S(=O)(=O)c1cccc(NC(=O)CCNC(=O)c2ccccc2Cl)c1,i,0,-1,8,-3,-12,nt,-2,
CCC(C)NC(=O)NC1C(NC(=O)NC(C)CC)N(C)C(=O)N1C (stereo not given),nt,1,0,0,nt,-4,nt,3,
O=C(Cn1ncc2c3ccccc3n(Cc3ccccc3F)c2c1=O)NCCCN1CCCC1=O,i,3,4,11,-1,3,15,-10,
Cc1ccc(S(=O)(=O)NCc2cccnc2)cc1C(=O)NC1CCCCC1,i,3,9,nt,4,nt,4,-9,
COc1cc(C2C(C#N)=C(N)OC3=C2C(=O)CCC3)ccc1OC(=O)N1CCOCC1 (stereo not given),i,2,4,6,5,4,8,-6,
O=C(N/N=C/C(Br)=C\c1ccccc1)c1ccco1,i,2,-5,-6,-95,-1,6,-14,
Cc1ccc2c(c1)c1n[nH]c(=S)nc1n2CCc1ccccc1,i,2,-3,6,10,-4,-10,nt,
CC1CC(C)CN(C(=O)c2cccc(S(=O)(=O)Nc3cc(C(F)(F)F)ccc3Cl)c2)C1 (stereo not given),i,3,-5,-16,-7,-12,3,nt,
O=C(COC(=O)c1cc(F)c(F)cc1Cl)NC1CCCCCC1,nt,2,4,nt,9,nt,nt,-15,
N#C/C(=C\Nc1ccccc1SC(F)(F)F)c1nc(-c2ccc(Cl)cc2)cs1,i,-6,-3,15,6,24,nt,nt,
Cc1cc2ccccc2c(=O)n1CC(=O)N1CCN(c2cccc(Cl)c2)CC1,i,-2,1,0,nt,6,12,-41,
O=C(NC(=S)NCC1CCCO1)c1ccccc1 (stereo not given),i,-10,-1,-3,11,0,-11,-28,
Cc1ccc(CNS(=O)(=O)c2ccccc2[N+](=O)[O-])cc1,i,0,0,-4,-10,0,-2,nt,
CC(OC(=O)/C(C#N)=C/c1ccc(N(C)C)cc1)C(=O)N(C)Cc1ccccc1 (stereo not given),i,-32,26,?,14,?,-3,-11,
Cc1ccc([C@@H]2CC=C(C(=O)O)[C@H](c3ccc(Cl)cc3)N2S(=O)(=O)c2ccccc2C)cc1,nt,2,3,nt,4,nt,nt,-8,
Cc1nnc(SCC(=O)NNC(=O)c2ccco2)s1,i,-4,3,nt,3,nt,-10,-16,
C=CCn1c(NC(C)c2cc(Cl)ccc2O)nc2ccccc21 (stereo not given),i,-1,-11,-3,38,-6,1,-2,
O=C(CC[C@H]1O[C@@H](n2ccc(=O)[nH]c2=O)[C@H](O)[C@@H]1O)N1CCN(c2ccccn2)CC1,nt,1,2,nt,6,nt,nt,0,
O=C(Nc1ccccc1N1CCOCC1)[C@@H]1O[C@H](CO)[C@H](O)[C@H](O)[C@H]1O,nt,0,5,nt,-9,nt,nt,-9,
CC(C)(Oc1ccc(Cl)cc1)C(=O)NCCN1C(=O)S/C(=C/c2cccnc2)C1=O,i,-8,-6,0,-2,-6,-9,nt,
Cc1ccc(S(=O)(=O)N(CC(=O)N2CCCCCC2)c2ccccc2)cc1,i,4,4,3,-29,-2,0,-17,
CCCCN1CC(=O)N2[C@H]3c4cc(OC)ccc4OC[C@@H]3[C@H](C(=O)OCC)[C@]2(C)C1=O,nt,0,8,nt,-13,nt,0,-8,
O=C(CN1C(=O)NC2(CCCC2)C1=O)NNC(=O)c1ccccc1F,nt,-3,-1,nt,-41,nt,6,8,
O=C(CC1C(=O)NCCN1Cc1ccc(-c2ccccc2)cc1)NCC1CC1 (stereo not given),i,-3,0,14,6,4,-13,nt,
COc1cccc(C(=O)N(CN2CCCC2=O)c2cccc(Cl)c2)c1OC,i,-1,0,-8,-52,3,-9,-9,
CCc1cccc(OCCN2CCCC2)c1,i,4,5,5,4,4,-5,nt,
Cc1ccc(C2(C)NC(=O)N(CC(=O)N(C)CC(=O)Nc3cccc4ccccc34)C2=O)cc1 (stereo not given),i,2,1,nt,-5,nt,nt,nt,
Cc1cc(C(=O)Nc2sc(C)c(C)c2C#N)no1,i,-1,3,29,-22,11,11,8,
CCN(CC)CCn1c2c(c(SCC(=O)Nc3cccc(C(C)=O)c3)nc1=O)CCCC2,i,1,2,nt,-12,nt,nt,1,
COc1ccccc1N(CC(O)COc1ccccc1C)S(=O)(=O)c1ccccc1 (stereo not given),i,-2,-4,0,27,2,-18,-5,
COc1ccc(-n2c(C)cc(C(=O)CN3C(=O)NC4(CCCc5sccc54)C3=O)c2C)cc1 (stereo not given),nt,4,-8,-3,22,-2,25,nt,
Cc1ccc(C(C[N+](=O)[O-])c2c(-c3ccccc3O)[nH][nH]c2=O)cc1 (stereo not given),i,0,-5,-2,-2,1,66,nt,
CCN(CC)C(=O)CCCOc1ccc(Cl)cc1Cl,i,-3,-3,-1,-199,-1,0,nt,
O=C(NC(Cc1c[nH]c2ccccc12)C(=O)NCCCN1CCOCC1)c1cccs1 (stereo not given),i,-1,2,-5,2,-9,-9,nt,

# An excerpt taken from the entries so far:
SMILES,Rce1 inh,MT1-MMP act inh,MT1-MMP act inh RFP,PABP FP inh,HIV Env fusion,eIF4H inh,CSC inhib,Yeast UUG start,others
Cc1ccc(CNS(=O)(=O)c2ccccc2[N+](=O)[O-])cc1,i,0,0,-4,-10,0,-2,nt,
CC(OC(=O)/C(C#N)=C/c1ccc(N(C)C)cc1)C(=O)N(C)Cc1ccccc1 (stereo not given),i,-32,26,?,14,?,-3,-11,
Cc1ccc([C@@H]2CC=C(C(=O)O)[C@H](c3ccc(Cl)cc3)N2S(=O)(=O)c2ccccc2C)cc1,nt,2,3,nt,4,nt,nt,-8,
Cc1nnc(SCC(=O)NNC(=O)c2ccco2)s1,i,-4,3,nt,3,nt,-10,-16,
C=CCn1c(NC(C)c2cc(Cl)ccc2O)nc2ccccc21 (stereo not given),i,-1,-11,-3,38,-6,1,-2,
O=C(CC[C@H]1O[C@@H](n2ccc(=O)[nH]c2=O)[C@H](O)[C@@H]1O)N1CCN(c2ccccn2)CC1,nt,1,2,nt,6,nt,nt,0,

# Screening data as filed in PubChem BioAssay.
